PINK1 modulator: modulators of PINK1 expression; AID 624263; PINK1 immunofluorescence, high-content cytometry, 24 h; Potency, µM (titrated, usually from 76.6 µM), for inactives: at the top dose activation (PINK1 increase), actives largely listed as activators; actives 0.2% (n = 410,000); active = well fitted activation curve with a large enough effect; inconclusive = small, poorly fitted or top-dose-only effect; inactive = flat fitted curve, though single readings scatter; cell line not stated here;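 also: potency is read from the fitted curve at half-maximal effect; % of control where 0% means no effect; nearly all actives have a fitted effect of over 65% in size; a mitochondrial uncoupler was the plate control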
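Measures PINK1 amount and localization on or inside mitochondria by immunofluorescence. Stable cells get compounds at 5 concentrations for 24 hours before fixation and staining; CCCP controls included.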
ClpP mod: qHTS Assay for Activators of ClpP; ATP-dependent Clp protease proteolytic subunit (Bacillus subtilis (strain 168)), P80244; purified B. subtilis ClpP, FRET peptide cleavage, 20 min; Potency, µM (titrated, usually from 57.5 µM), without a hit: at the highest dose activity change, negative = active; actives 1.9% (n = 340,000); active = well fitted falling curve with a large enough effect; inconclusive = small, poorly fitted or top-dose-only effect; inactive = no such curve, though single readings can be large or run the other way; also: potency is read from the fitted curve at half-maximal effect; the source files actives as falling curves though it sought activators and does not explain the sign; nearly all actives have a fitted effect of over 65% in size; many hits overshoot -100%
Target sequence (P80244 whole entry, looked up): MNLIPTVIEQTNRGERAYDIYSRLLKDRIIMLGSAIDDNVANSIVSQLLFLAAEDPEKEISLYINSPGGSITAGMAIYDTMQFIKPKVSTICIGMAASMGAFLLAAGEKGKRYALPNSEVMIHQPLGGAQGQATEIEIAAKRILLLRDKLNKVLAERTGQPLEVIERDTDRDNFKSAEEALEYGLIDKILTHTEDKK
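ClpP 10 microg/mL final, pH 8 Tris/KCl buffer with BSA, glycerol, Tween-20; compound pinned in; FRET-FV substrate; RT 20 min; Ex320/Em430; ΔFRET vs ADEP 5.8 microM, DMSO, no enzyme.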
Sfp inh: inhibitors of Bacillus subtilis Sfp phosphopantetheinyl transferase. Q9F4F7. Biochemical Sfp PPTase activity, qHTS. Potency, µM, without a hit: max response, negative = inhibition, most hits filed as inhibitors. actives 3.5% (n = 310,000); active = well fitted inhibition curve with a large enough effect; inconclusive = small, poorly fitted or top-dose-only effect, or another doubt; inactive = no such curve, though single readings can be large or run the other way;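 also: the enzyme is Sfp with the accession as filed and its product quenches rhodamine fluorescence; potency is read from the fitted curve at half-maximal effect; 0% = enzyme reaction without inhibitor and -100% = no enzyme wells; top concentration of the series not given in the record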
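Fluorescence-quenching assay with 15 nM Sfp, 5 uM rhodamine-CoA and 12.5 uM BHQ-2-labelled ybbR peptide in pH 7.6 Hepes/MgCl2 buffer. Enzyme was pre-incubated with compound for 15 min at room temperature. Rate was taken from the 30-min fluorescence change (525/598 nm).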
D2 ag: activates the human D2 dopamine receptor. P14416. DiscoveRx PathHunter D2 beta-arrestin, luminescence, 90 min; 100% = 57 uM dopamine signal. activation, % (concentration not given with the values). actives 0.084% (n = 360,000). AID 624465; in the data active = activation above about 40%; inconclusive = about 15% to 40%; inactive = below about 15%; also: compound concentration not given in the record; the text of the record calls up to 30% inactive
Target sequence (P14416 whole entry, looked up): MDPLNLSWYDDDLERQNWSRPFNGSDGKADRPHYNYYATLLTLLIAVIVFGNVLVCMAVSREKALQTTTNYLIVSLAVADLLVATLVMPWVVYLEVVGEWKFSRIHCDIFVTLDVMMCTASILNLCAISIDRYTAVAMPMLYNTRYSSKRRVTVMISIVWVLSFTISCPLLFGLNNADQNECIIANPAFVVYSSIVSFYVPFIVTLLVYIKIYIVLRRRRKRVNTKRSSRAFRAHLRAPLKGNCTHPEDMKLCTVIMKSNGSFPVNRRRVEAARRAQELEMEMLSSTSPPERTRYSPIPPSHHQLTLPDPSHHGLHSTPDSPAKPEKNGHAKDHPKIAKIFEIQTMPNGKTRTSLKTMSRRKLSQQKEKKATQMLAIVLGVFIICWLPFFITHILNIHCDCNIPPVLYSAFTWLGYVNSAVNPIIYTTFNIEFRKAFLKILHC
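Agonist mode: compounds alone added to overnight-plated D2 PathHunter cells for 90 min at 37 C, with 57 uM final dopamine (EC100) defining full response. Beta-arrestin recruitment detected by chemiluminescent reagent, read after 1 h at ambient temperature.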
Menin MLL FP FL: inhibitors of human menin-MLL interaction, wild-type MLL peptide; 290,000 tested, under 10 active; AID 1766; Fluorescence polarization, fluorescein-MLL peptide displacement from menin; FP activity change, % at 61.4 µM; inconclusive = falling polarisation curve, or a change in total fluorescence; inactive = total fluorescence flat and polarisation flat or rising; no compound was filed as active; the % refers to the polarisation; negative = inhibition;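 also: % of control where 0% means no effect; inhibitors lower the polarisation; unlabelled MLL peptide was the positive control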
gsp antagonist: antagonizes gsp, the McCune-Albright syndrome mutation | gsp-mutant cells, cAMP HTRF, 30 min; control for the full effect not named in the record | Potency, µM (series often up to 76.9 µM), for inactives: top-dose activity change, negative = inhibition, usual class: inhibitors | actives 0.4% (n = 340,000) | AID 624288; active = falling curve of any shape with a large fitted effect; inconclusive = falling curve, mostly with a smaller effect; inactive = flat or rising curve; cell line not stated here;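 also: intracellular cAMP measured with PDE inhibitor Ro 20-1724 present during compound exposure; potency is read from the fitted curve at half-maximal effect; % is scaled to controls: 0 for no effect and ±100 for the full control effect; nearly all actives have a fitted effect of over 65% in size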
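Cells, 2000/well, grown 16–24 h in DMEM 10% FBS with 0.5 mg/ml G418, then compounds plus […] (300 uM addition stock), 30 min at 37C. cAMP read by HTRF (cAMP-d2 and anti-cAMP antibody-K in lysis buffer) after 30 min RT.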
gsp agonist: agonists of gsp mutant (McCune-Albright syndrome). gsp mutant cells, cAMP HTRF, 30 min; control for the full effect not named in the record. Potency, µM (top dose mostly 76.9 µM), for inactives: top-dose activation (cAMP increase), most hits filed as activators. actives 0.13% (n = 340,000). AID 624287; active = well fitted activation curve with a large enough effect; inconclusive = small, poorly fitted or top-dose-only effect, or another doubt; inactive = no such curve, though single readings can be large or run the other way; cell line not stated here;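 also: phosphodiesterase inhibitor Ro 20-1724 added with compounds to block cAMP breakdown; potency is read from the fitted curve at half-maximal effect; nearly all actives have a fitted effect of over 60% in size; about a fifth of the inactives were tested at one dose only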
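Cells stably selected in G418 were plated at 2000/well, grown 16-24 hr, then given compounds in DMSO with the PDE inhibitor […] (300 uM solution added) for 30 min at 37C; cAMP was read by HTRF.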
Numbers without * were called inactive; u = inconclusive; x = not tested or not shown; [ ] = dose if it differs, or a comment.

SMILES	PINK1 modulator	ClpP mod	Sfp inh	D2 ag	Menin MLL FP FL	gsp antagonist	gsp agonist
CSc1nsc2nc(=O)c(/C=C3\C=Nc4ccccc43)c(N)n12	1.6%	-0.8%	-22.8%	-3.1	11.2	31.6µM*	-3.9%
CC(=O)Nc1sc(N)nc1-c1ccccc1	-0.5%	-2.7%	u	-3.3	-3.9	-6.7%	u
CCn1c(=O)c(=O)[nH]c2cc(C(=O)N3CCN(c4ccccc4F)CC3)ccc21	2.8%	-12.0%	11.9%	-2.0	2.9	-14.2%	14.6%
CCOC(=O)C1CC2CC(C1)CN(C(=O)C1CCCCC1)C2 (centres undefined)	2.4%	0.9%	5.4%	-5.3	-3.7	8.1%	0.0%
CCOC(=O)c1nc(NCc2ccccc2F)c2ccccc2n1	-0.2%	x	8.0%	-0.3	1.8	2.3%	-1.0%[15.4 µM]
COC(C(=O)Nc1ccnn1C1CCN(Cc2cnn(C)c2)CC1)c1ccccc1 (centres undefined)	-1.0%	-4.2%	18.2%	-2.2	x	5.0%	-46.4%[inhibitor]
Cc1ccccc1OCC(=O)Nc1nnc(C2CC2)s1	4.3%	-0.5%	x	-1.9	x	8.1%	u
CN(CCc1ccccn1)C(=O)CC1C(=O)NCCN1Cc1ccc(-c2ccccc2)cc1 (centres undefined)	-0.6%	x	50.1µM*	-5.6	-6.8	-48.6%	4.8%[15.4 µM]
COC(=O)c1cc(S(=O)(=O)N2c3ccccc3CC2C)c[nH]1 (centres undefined)	5.5%	-1.3%	5.9%	2.2	2.2	14.0%	1.5%
Cc1c(NC(=O)c2c(F)c(F)c(F)c(F)c2F)c(=O)n(-c2ccccc2)n1C	-0.2%	0.1%	4.8%	-3.3	-0.3	12.5%	-1.4%
COc1cc2c(cc1OC)C(=S)NC1(CCCC1)C2	-0.8%	x	21.2%	-0.9	3.0	x	-32.4%[15.4 µM]
Cc1ccc(N2C(=O)CC(NNC(=O)c3cccc(S(=O)(=O)N4CCCC4)c3)C2=O)cc1 (centres undefined)	0.0%	-0.5%	3.5%	-0.4	-1.5	9.4%	4.9%
Cc1cccc(-n2c(CNC(=O)c3cccc([N+](=O)[O-])c3C)n[nH]c2=S)c1	-0.3%	x	15.8%	0.2	-1.8	4.6%	-11.9%
CC1(C(=O)NS(=O)(=O)C2CC2)CCCN(C(=O)c2ccccc2)C1 (centres undefined)	1.2%	-1.1%	x	-1.3	x	x	x
Cc1cccc(-c2cccc(NC(=O)C3CCCN(C(=O)c4csc(C)n4)C3)c2)c1 (centres undefined)	0.6%	0.2%	-12.9%	0.1	-3.9	35.5µM*	u
CN(C)c1ccc(/C=N/NC(=O)C(O)(c2ccccc2)c2ccccc2)o1	12.1%[38.3 µM]	-5.9%	2.82µM*	1.0	u	-3.8%	-48.3%[inhibitor]
O=C(CSc1nc2ccc(NC(=O)c3ccccc3C(=O)O)cc2s1)Nc1ccc(F)c([N+](=O)[O-])c1	0.0%	x	-9.5%	-3.4	-1.0	-25.5%	-6.5%[15.4 µM]
COc1ccc(N2CCN(CCOc3ccc4c(C)cc(=O)oc4c3)CC2)cc1	-1.1%	-17.0%	-7.2%	-1.0	1.4	10.3%	14.2%
CCc1nc2c(c(SC)nn2-c2ccccc2)c(N)c1C(=O)OC	1.7%	31.6µM*	12.0%	-3.9	3.7	-8.1%	13.2%
COc1ccc(C)cc1NC(=O)C(OC(=O)Cn1cnc2c1c(=O)n(C)c(=O)n2C)c1ccccc1 (centres undefined)	-0.5%	-2.9%	x	-3.6	x	-12.5%	10.3%
Cc1ccc(S(=O)(=O)N2CCOCC2)cc1NC(=O)COC(=O)c1cnc(Cl)c(Cl)c1	2.8%	1.8%	x	-3.8	x	-10.5%	0.2%[15.4 µM]
Nc1nc(Nc2ccc(Cl)cc2)nc(NCCO)c1[N+](=O)[O-]	-1.0%	x	10.2%	-3.2	1.6	-15.6%	-7.9%[15.4 µM]
O=C(CCCCl)NC(=S)Nc1cc(C(F)(F)F)ccc1N1CCOCC1	-1.4%	1.6%	5.2%	9.7	15.0	2.5%	-7.3%
CCn1c(Cc2ccccc2)nnc1SCC(=O)Nc1ccccc1O	-2.2%	x	18.3%	5.4	4.2	-3.7%	1.8%
CCCCc1cc(=O)oc2cc(C)cc(OCC(=O)N3C[C@H]4C[C@@H](C3)c3cccc(=O)n3C4)c12	-0.9%	4.7%	12.3%	-10.8	0.0	-10.9%	x
COc1ncc2nc(-c3cccs3)c(=O)n(C)c2n1	-0.8%	x	-1.0%	x	u	x	x
CCN(CC)S(=O)(=O)c1ccc(N2CCOCC2)c(NS(=O)(=O)c2cc(C(C)(C)C)ccc2C)c1	0.2%	-12.1%	0.5%	-5.1	1.1	-5.4%	-4.1%
CC(NC(=O)c1ccc(=O)oc1)c1ccccc1 (centres undefined)	0.3%	3.2%	15.5%	-1.4	0.3	8.9%	-87.0%[inhibitor]
CCOC(=O)c1sc(=S)n(-c2ccc(C)cc2)c1N	2.5%	2.0%	39.8µM*	-2.9	5.5	-3.9%	u
CC(C)CNC(=S)NNC(=O)c1csc2ccccc12	-3.0%[38.3 µM]	10.8%	8.0%	-4.8	-1.7	-8.3%	-2.4%
Cc1ccc(C(=O)NNC(=O)C2CC2)cc1Br	-0.7%	-2.5%	9.6%	-0.2	x	6.9%	-0.3%
COc1cc(CN2C[C@@H](CO)O[C@@H](n3cnc4c(NC(C)C)ncnc43)C2)cc(OC)c1OC	-0.6%	0.6%	x	-3.9	x	x	x
CCC1CCCCN1CCNC(=O)CCS(=O)(=O)c1ccc(Br)cc1 (centres undefined)	-1.2%[38.3 µM]	0.8%	10.5%	-0.1	8.7	-13.2%	30.0%
O=C(N/N=C/c1cccnc1)C(O)c1ccccc1 (centres undefined)	-2.0%	-1.8%	6.7%	-1.6	-3.0	3.7%	26.2%
Cc1ccc(/C(N)=N/OC(=O)c2ccc(C)cc2Cl)cc1	-2.5%	-1.5%	13.3%	u	7.8	-0.5%	-14.1%
Cc1cccc(OS(=O)(=O)NC(=O)OCC2CCCN3CCCCC23)c1 (centres undefined)	-1.1%	x	28.8%	-3.8	0.2	4.9%	14.7%[15.4 µM]
CCOc1ccc(C(=O)Nc2ccc(CN3CCOCC3)cc2)cc1Br	0.2%	1.0%	3.0%	-0.3	-0.9	4.5%	-2.8%[15.4 µM]
Cc1cc(/C=N/NC(N)=O)c(C)c(CO)c1	1.3%	-1.1%	19.7%	0.7	9.7	-12.2%	-4.3%
O=C(COc1ccc(-n2cnnn2)cc1)Nc1cc(Cl)cc(Cl)c1	4.0%	-5.4%	x	8.3	x	0.6%	-4.3%[15.4 µM]
Oc1ccc2ccccc2c1N=Nc1nccs1	-3.1%	x	u	13.8	x	-13.0%	-27.2%
N#Cc1nc(-c2ccc(Cl)cc2)oc1NCc1ccco1	-0.4%	11.2µM*	11.3%	-3.3	3.3	-6.3%	10.3%
O=C1c2ccccc2S(=O)(=O)c2cc(N3CCC4(CC3)OCCO4)ccc21	-0.5%	1.1%	x	-2.0	x	-1.1%	-14.2%
Cn1c(C(=O)N2CCN(c3ncccn3)CC2)cc2c(=O)n(C)c3ccccc3c21	-0.5%	1.0%	39.8µM*	-0.5	-0.2	10.7%	21.4%
O=C(NCC(O)c1ccccc1)c1ccc(Cl)c(S(=O)(=O)N2CCCC2)c1 (centres undefined)	0.0%	-3.4%	x	3.0	x	-3.7%	9.2%
COc1cccc(C(=O)Nc2c(C)nn(-c3ccccc3)c2C)c1	5.6%	x	12.0%	3.0	-7.5	-11.6%	-4.8%[15.4 µM]
COc1cc(S(=O)(=O)N2CCC(c3nc4ccccc4s3)CC2)ccc1S(=O)(=O)N1CC(C)CC(C)C1 (centres undefined)	x	1.6%	28.1%	0.0	0.9	-0.6%	-39.3%[inhibitor]
CC(C)CC(N=Cc1c(O)c2ccccc2oc1=O)C(=O)O (centres undefined)	-0.1%	x	16.4%	3.6	2.8	3.9%	-11.2%
COc1ccc(-c2nnc(SCC(=O)N3CCOCC3)n2C)cc1OC	-0.7%	-0.9%	-2.9%	1.2	3.9	9.0%	-32.5%[inhibitor]
CCOC(=O)C(C)Oc1cccc2c(=O)n(CC(=O)NCc3ccccc3)ccc12 (centres undefined)	1.8%	x	9.1%	-2.9	3.9	-1.2%	22.8%[15.4 µM]
Oc1ccc(C=NNc2nc3ccccc3s2)c(O)c1	-0.9%	x	x	11.5	x	-7.6%	8.2%
Cc1ncc(C[n+]2ccc(C)c(C)c2)c(N)n1	1.1%	-0.9%	x	-3.8	x	1.7%	x
CC1=C(C(=O)OC(C)C)C(c2cccnc2)n2ncnc2N1 (centres undefined)	1.8%	-2.3%	1.5%	-2.0	2.4	-13.4%	-77.7%[inhibitor]
COc1cc(OC)c2nc(C)c3c(c2c1)N(c1ccc(O)cc1)CC3	-1.1%	1.5%	11.1%	5.5	-0.4	-5.4%	0.9%[15.4 µM]
CC(=O)c1ccc(N=Nc2ccc(N(C)C)cc2)cc1	-2.6%	x	-3.4%	-3.3	0.2	3.1%	-14.8%
CC(NC(=O)CNC(=O)C1CCCCC1)c1cccc(Cl)c1 (centres undefined)	1.8%	x	23.3%	-3.0	-0.6	2.5%	5.4%[15.4 µM]
COc1ccccc1NC(=O)N(C)C[C@@H]1OCc2cn(nn2)CCCC(=O)N([C@H](C)CO)C[C@H]1C	-1.0%	-0.6%	x	-2.8	x	x	8.6%
CCC(=O)Nc1cc(C(=O)OCC(=O)c2ccccc2Cl)ccc1C	x	-0.2%	2.8%	-1.9	6.0	-3.8%	-6.9%
Nc1cc([N+](=O)[O-])ccc1N1C(=O)CCCC1=O	1.9%	-0.4%	-1.7%	-2.7	0.8	0.1%	21.0%
Cc1ccc(S(=O)(=O)Nc2ccc(Cl)cc2)cc1NC(=O)c1cc2c(s1)CCCC2	u	u	24.4%	7.8	7.6	-11.1%	-46.9%[inhibitor]
Cc1ccc(NC(=O)CSCC(=O)Nc2cc(S(=O)(=O)N3CCOCC3)ccc2OC(C)C)cc1	1.0%	-2.2%	x	-0.6	x	-12.7%	-1.2%
CC1CC(C)CN(CCOc2ccc(Br)cc2)C1 (centres undefined)	3.3%	2.7%	-18.7%	-1.3	4.8	6.2%	-1.5%

Screens from PubChem BioAssay.
